CDC25B-CDK2 inh: primary biochemical HTRF screen for blockers of M-phase inducer phosphatase 2 binding to CDK2/cyclin A; P30305+P24941; HTRF CDC25B-CDK2/CyclinA binding, anti-His/anti-Flag; stronger effect = higher value; z-score (concentration not given with the values); 0.72% of 94,000 active; AID 1259370, 2018;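 further: score is relative to mean and SD of negative controls; strong numbers were not always called active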
TAR Tat displ: TAR RNA-Tat peptide displacers, HIV-1, primary screen, biochemical, FRET, FAM/TAMRA-labeled Tat. HIV-1 TAR RNA, Tat peptide displacement FRET; stronger effect = higher value. z-score (no concentration beside the values). 0.6% of 100,000 active;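 further: score is relative to mean and SD of negative controls; some compounds called inactive have numbers as strong as hits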
* marks the source's active call; other numbers are inactive results; x = not tested or not shown; ! = repeats disagree.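 How the source made its calls: active means z-score from 3 up in half or more of its runs; inactive means the rest.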

SMILES	CDC25B-CDK2 inh	TAR Tat displ
Cc1ccc(S(=O)(=O)n2nc(C)c(Sc3ccccc3)c2C)cc1	-0.81	0.28
CC1C(=O)Nc2ccc(S(=O)(=O)N3CCc4ccccc4C3)cc2NC1=O (configuration not stated)	-2.06	1.89
Cc1ccc(C(=O)c2cccc(N3C(=O)c4cccnc4C3=O)c2)cc1C	-0.61	2.93
COc1ccc2c(c1)CN(c1ccc(Br)cc1)CO2	-0.68	x
O=C(CCS(=O)(=O)c1cc(Br)cc2c1N(C(=O)C1CC1)CC2)N1CCCCC1	-1.79	x
O=C(CN1c2cccc3cccc(c23)S1(=O)=O)Nc1ccc(F)cc1F	-1.07	-1.51
Cc1nn(-c2ccc(F)cc2)cc1-c1noc(C(=O)NCC2CCCO2)n1 (configuration not stated)	x	0.45
COc1ccccc1C1C2=C(CCCC2=O)Nc2ccc3ccccc3c21 (configuration not stated)	-0.77	-0.8
Nc1nonc1C(=O)NCCNc1ccc([N+](=O)[O-])cc1Cl	-2.62	x
CC(=O)Nc1cc2c(cc1C)n(C)c(=O)n2C	-1.74	0.03
COc1ccc(Cl)cc1-n1nnc(-c2nc(-c3ccccc3)no2)c1N	x	0.12
COc1ccc(OC(=O)c2nc(SC)ncc2Cl)cc1	-1.76	2.75
COc1cc(C(=O)Nc2ncc(Cc3cccc4ccccc34)s2)cc(OC)c1OC	-4.46	x
O=C(CN1C(=O)CSc2cccn2-c2ccccc21)NC1CCCc2ccccc21 (configuration not stated)	x	-0.23
CN(C)c1ccc(NC(=O)CSc2nnc3ccc4ccccc4n23)cc1	-1.46	-1.35
Cc1nn2c(NCC3CCCO3)cc(C(C)(C)C)nc2c1-c1ccc(F)cc1 (configuration not stated)	0.39	0.1
CC1=C(c2ccc(Cl)cc2)S(=O)(=O)N=C1N1CCc2ccccc21	-2.82	0.52
COc1ccc(-c2cnc(C)o2)cc1S(=O)(=O)Nc1ccc(Br)c(C)c1	x	1.97
O=C1C(c2ccc(F)cc2)N(C2CCCCCCC2)C(=O)CN1C1CCCC1 (configuration not stated)	-1.25	x
CCOC(=O)CN1C(=O)C(O)(CC(=O)c2ccc(Br)cc2)c2ccccc21 (configuration not stated)	1.35	0.69
O=C(CSc1nc(-c2ccccc2)nc2cc(=O)[nH]n12)Nc1ccccc1	x	0.62
COc1ccc(-c2cc(=O)[nH]c(N3CCN(Cc4ccc5c(c4)OCO5)CC3)n2)cc1	x	-1.15
c1ccc(N2CCN(c3cnc4ccccc4n3)CC2)cc1	x	0.9
COc1nc2c(c(=O)n(C)c(=O)n2C)n1Cc1c(F)cccc1Cl	-1.53	2.25
C#CCN1C(=O)C(O)(CC(=O)c2ccc(F)cc2)c2cc(Br)ccc21 (configuration not stated)	0.65	x
CC(C)c1ccc2c(c1)CCC1C(C)(C(N)=O)CCCC21C (configuration not stated)	x	2.42
CN(c1ccc2c(c1)OCO2)S(=O)(=O)c1ccsc1-c1nc(-c2ccncc2)no1	x	1.55
CCc1cc2c(NCCc3ccco3)ncnc2s1	x	0.97
O=C(C1CCN(S(=O)(=O)c2cnc[nH]2)CC1)N1CCn2c1nc1ccccc12	-1.65	x
CC(=O)c1sc(-c2ccccc2)cc1N	-2.31	x
O=C1/C(=C/c2ccccc2)Cc2ccccc21	-0.38	x
CCOC(=O)c1cnn(-c2ncnc3sc(C)c(C)c23)c1N	-0.45	0.65
c1coc(C2Oc3ccccc3C3CC(c4cccs4)=NN32)c1 (configuration not stated)	-1.52	x
C=CCSc1nnc(NC(=O)c2cc(-c3cccs3)on2)s1	-1.72	2.11
OC(CNCc1ccc2c(c1)OCO2)COc1ccc(-c2csnn2)cc1 (configuration not stated)	-1.69	x
COC(=O)C1=C(C)NC2=C(C(=O)c3ccccc32)C1c1ccccc1Cl (configuration not stated)	-1.72	1.92
C=C(C)Cn1c(=O)[nH]c2ccccc21	-1.26	0.72
CCN(CC)c1ccc(NC(=O)C2CC3CCCN3C23C(=O)Nc2ccccc23)c(C)c1 (configuration not stated)	x	-0.39
CC(=O)N[C@H]1[C@@H](OCc2ccccc2)O[C@H](CO)[C@@H](O)[C@@H]1O	0.13	x
NC(=O)C(CCCN=C(N)CF)NC(=O)c1ccccc1 (configuration not stated)	x	2.26
COc1ccc(-c2nc3c(c(=O)[nH]2)Cc2c(ccc4ccccc24)O3)c(OC)c1	-0.53	1.93
CC(NC(=O)c1c(O)nc2ccccn2c1=O)c1ccccc1 (configuration not stated)	-1.86	2.01
CCc1oc(C(=O)O)cc1CN1CCCCC1	-2.56	-0.52
Cc1nnc2sc(-c3cc4ccccc4o3)nn12	-1.24	0.62
Cc1cc(C)c2c(c1)[nH]c1nnc(SCC(=O)NCc3ccccc3)nc12	-0.78	x
O=C1CC(NCCc2c[nH]c3ccccc23)C(=O)N1c1cccc(Cl)c1 (configuration not stated)	-0.42	0.42
Cc1c(C)n(C(=O)CSc2ncccn2)c2ccccc12	-2.17	0.95
O=c1[nH]c(SCc2cccc3ccccc23)nc2c1cnn2-c1ccccc1	x	0.82
O=C(CCCn1c(=O)c2cccn2c2cccnc21)NCc1cccnc1	x	0.6
O=S(=O)(c1ccc(Cl)s1)N1CCN(C(c2ccccc2)c2ccccc2)CC1	-0.45	x
COC(=O)c1sccc1O	0.09	x
Cc1c(CN(C)C)c2c(n1C)C(=O)c1ccc(Br)cc1-2	-1.08	-0.33
Cn1c(=O)c2c(nc(Cl)n2Cc2cccc(Cl)c2)n(C)c1=O	-1.07	0.25
COC(=O)CCc1c(C)[nH]n(-c2nc(-c3ccc(Cl)cc3)cs2)c1=O	-1.7	-0.57
C=CCn1c(=O)c2c(nc(-c3ccc(S(=O)(=O)O)cc3)n2C)n(C)c1=O	1.44	x
Cc1nnc(-c2cccc(S(=O)(=O)Nc3ccccc3)c2)o1	-1.18	1.41
O=[N+]([O-])OC12CC3CC(C1)CC([N+](=O)[O-])(C3)C2	-2.29	x
Clc1cccc(Cl)c1COc1cccc(N2CCOCC2)c1	-2.08	x
O=C(NC1CCCC1)C(c1ccc(Cl)cc1)N1CCCC1 (configuration not stated)	0.62	x
CCOCCCNC(=O)Cn1ncc2ccsc2c1=O	-0.44	0

(continued)
SMILES	CDC25B-CDK2 inh	TAR Tat displ
CC1CCCCN1C(=O)CCS(=O)(=O)c1ccc2c(c1)n(C)c(=O)c(=O)n2C (configuration not stated)	-2.52	0.51
O=C(Cc1ccc(NC2=NC3CS(=O)(=O)CC3S2)cc1)Nc1ccc(F)c(Cl)c1 (configuration not stated)	-0.44	4.2
O=C(O)c1ccccc1-c1ccccc1C(=O)NCCN1CCNC1=O	0.36	x
CC(C)Oc1ccc(C(=O)Oc2ccc(-n3cnnn3)cc2)cc1	-1.6	-1.83
COc1cc(OC)c(NC(=O)c2csc3c2CCCCC3)cc1Cl	-0.2	0.37
O=C(Cn1ncc2c3ccccc3n(Cc3ccccc3F)c2c1=O)NCc1ccccn1	-3.07	1.33
CCOC(=O)c1ccc(N2C(=O)c3n[nH]c(C)c3C2c2ccco2)cc1 (configuration not stated)	x	1.41
Nc1cc(-c2ccc(Br)cc2)[nH]n1	-1.75	x
CCN(Cc1ccccc1)S(=O)(=O)c1ccc2c(c1)N(Cc1noc(C3CCC3)n1)C(=O)CO2	x	1.35
CCCCc1nn2c(=O)cc(CSc3n[nH]c(-c4ccccc4F)n3)nc2s1	x	0.44
Cc1ccc(Cn2c(CO)cnc2SCc2ccc(Cl)cc2)cc1	x	0.97
c1ccc(-c2ccc(-c3nc(-c4cccnc4)no3)cc2)cc1	-1.39	1.51
C=CCSc1nnc(-c2ccco2)n1-c1ccccc1	-0.08	-0.22
N#Cc1c(NC(=O)CSc2n[nH]c(=O)[nH]c2=O)sc2c1CCCC2	-1.21	x
O=C(NN1CCOCC1)NC12CC3CC(CC(C3)C1)C2	-0.78	x
Cc1ccc2c(CC(=O)Nc3nnc(C(C)C)s3)coc2c1C	-0.46	1.81
O=C1c2cccc3cccc(c23)C12OCCS2 (configuration not stated)	0.59	x
CC(=O)n1nccc1-c1cc(-c2ccccc2)no1	-0.91	x
O=C(Cn1c(=O)sc2ccccc21)Nc1ccc(Cl)cc1	-0.11	x
COCCCNc1ncnc2onc(-c3ccccc3OC)c12	x	0.05
O=C(Cc1cccc2ccccc12)N1CCC(c2nc3ccccc3o2)CC1	1.14	2.55
COc1ccc(C2Nc3ccccc3-n3c(-c4ccccc4)c4c(=O)n(C)c(=O)n(C)c4c32)cc1O (configuration not stated)	0.91	0.66
Cc1ccc(Cn2nc(Cl)nc2Sc2ccccc2N)cc1	x	1.55
CCCCCc1c(C)[nH]n(-c2nc(C)cc(C)n2)c1=O	-0.1	2.59
O=C(O)CCC(=O)Nc1sc2c(c1C(=O)Nc1cccc3ccccc13)CCCCC2	-1.24	x
Cc1c(C(=O)O)nnn1-c1ccc(Cl)cc1	-2.18	0.46
CCOC(=O)c1cc(Cl)c(NC(=O)C(F)(F)F)c(Cl)c1	-2	x
CSc1cccc(NC(=O)C2CCCN2S(=O)(=O)c2ccc3c(c2)CC(C)N3C(C)=O)c1 (configuration not stated)	x	0.03
COC(=O)c1cc(Nc2cc(C)c3ccc(O)cc3n2)cc(C(=O)OC)c1	-1.46	0.29
CCOC(=O)C1CCN(C(=O)Cn2c(=O)oc3cc(S(=O)(=O)N4CCC(C)CC4)ccc32)CC1	-2.24	0.17
CCOc1ccccc1Nc1n[nH]c(=S)s1	-1.37	x
Nc1c(C(=O)Oc2ccccc2)sc2ccccc12	x	2.26
COc1ccccc1-c1nnc2sc(-c3ccccc3Cl)nn12	-2.16	2.51
COc1cccc(OC)c1-c1nn(-c2ncc(C(F)(F)F)cc2Cl)c(=O)o1	-2.55	x
Cc1ccc2c(CC(=O)Nc3sc4c(c3C(=O)NCc3cccnc3)CCC4)coc2c1C	1.28	-0.1
Cc1nn(CCCC(=O)NCCC2=CCCCC2)c(=O)c2nccn12	-2.64	0.78
COc1ccccc1NC(=O)NCc1c(-n2cccc2)sc2c1CCCC2	-2.84	1.71
Cc1ccc(C)c(NC(=O)CSc2nn3c(=O)c(C)nnc3s2)c1	x	0.15
O=C(c1cc(-c2ccccc2)n[nH]1)N1CCn2c1nc1ccccc12	x	0.42
Cc1ccc(Nc2ncnc3ccccc23)cc1C	11*!	x
CC(=O)Nc1c(NCc2ccccc2)c2ccccc2oc1=O	-0.93	x
CC(C)NC(=O)c1sc(=S)n2c1[nH]c(=O)c1ccccc12	x	0.06
COC(=O)c1ccc(S(=O)(=O)N2CCN(c3ccc([N+](=O)[O-])cn3)CC2)n1C	-1.41	x
CCCCCOC(=O)C1=C(C)Nc2nnnn2C1c1ccccc1F (configuration not stated)	x	0.73
Cc1nc(CNC(=O)c2oc3ccc(Cl)cc3c2C)cs1	-0.99	1.82
COc1ccc(Nc2nn(-c3ccccc3)c3c2C(=O)CCC3)cc1	-1.41	-0.17
COc1cccc(N2C(=O)c3cccnc3C2=O)c1	0.51	0.11
CC(C(=O)O)c1c(C(=O)O)[nH]c2ccccc12 (configuration not stated)	-0.48	1.34
Cc1cc(-c2ccc(C(C)C)c(S(=O)(=O)NCc3ccco3)c2)on1	x	0.45
CCOC(=O)C1=C(C)Nc2ncnn2C1c1ccc(Cl)cc1 (configuration not stated)	x	-0.29
COc1cc(C2Nc3ccccc3-n3cc4c(=O)n(C)c(=O)n(C)c4c32)ccc1O (configuration not stated)	0.01	2.45
CC1CCCCC1NC(=O)CCn1c(=O)oc2ccccc21 (configuration not stated)	-0.14	x
O=C(NCCc1cccs1)C1CCN(c2nnc(-n3cccc3)s2)CC1	x	1.63
CC1=CC(C)(C)N(S(=O)(=O)c2ccc(C)cc2)c2cc3c(cc21)OCO3	-1.41	0.68
CCOc1cc(CNc2ccc3[nH]c(=O)[nH]c3c2)cc(Br)c1OCC	-1.67	0.85
Cc1cc2nc(CSc3ccccc3C(=O)O)cc(=O)n2o1	-1.12	3
O=C(CC1(O)C(=O)Nc2ccccc21)c1ccccc1Br (configuration not stated)	x	1.85
CCOc1ccccc1NC(=O)N1CC2CCCN2c2ccccc21 (configuration not stated)	x	-0.53

Another view of some results above.
| SMILES | CDC25B-CDK2 inh | TAR Tat displ |
| --- | --- | --- |
| CC(=O)Nc1c(NCc2ccccc2)c2ccccc2oc1=O | -0.93 | x |
| CC(C)NC(=O)c1sc(=S)n2c1[nH]c(=O)c1ccccc12 | x | 0.06 |
| COC(=O)c1ccc(S(=O)(=O)N2CCN(c3ccc([N+](=O)[O-])cn3)CC2)n1C | -1.41 | x |
| CCCCCOC(=O)C1=C(C)Nc2nnnn2C1c1ccccc1F (configuration not stated) | x | 0.73 |
| Cc1nc(CNC(=O)c2oc3ccc(Cl)cc3c2C)cs1 | -0.99 | 1.82 |
| COc1ccc(Nc2nn(-c3ccccc3)c3c2C(=O)CCC3)cc1 | -1.41 | -0.17 |
| COc1cccc(N2C(=O)c3cccnc3C2=O)c1 | 0.51 | 0.11 |
| CC(C(=O)O)c1c(C(=O)O)[nH]c2ccccc12 (configuration not stated) | -0.48 | 1.34 |
| Cc1cc(-c2ccc(C(C)C)c(S(=O)(=O)NCc3ccco3)c2)on1 | x | 0.45 |
| CCOC(=O)C1=C(C)Nc2ncnn2C1c1ccc(Cl)cc1 (configuration not stated) | x | -0.29 |
| COc1cc(C2Nc3ccccc3-n3cc4c(=O)n(C)c(=O)n(C)c4c32)ccc1O (configuration not stated) | 0.01 | 2.45 |
| CC1CCCCC1NC(=O)CCn1c(=O)oc2ccccc21 (configuration not stated) | -0.14 | x |
| O=C(NCCc1cccs1)C1CCN(c2nnc(-n3cccc3)s2)CC1 | x | 1.63 |
| CC1=CC(C)(C)N(S(=O)(=O)c2ccc(C)cc2)c2cc3c(cc21)OCO3 | -1.41 | 0.68 |
| CCOc1cc(CNc2ccc3[nH]c(=O)[nH]c3c2)cc(Br)c1OCC | -1.67 | 0.85 |
| Cc1cc2nc(CSc3ccccc3C(=O)O)cc(=O)n2o1 | -1.12 | 3 |
| O=C(CC1(O)C(=O)Nc2ccccc21)c1ccccc1Br (configuration not stated) | x | 1.85 |
| CCOc1ccccc1NC(=O)N1CC2CCCN2c2ccccc21 (configuration not stated) | x | -0.53 |
